Calb biofilm kill = clotrimazole potentiators killing C. albicans biofilm, primary screen, 4-compound mixtures. C. albicans biofilm persisters + clotrimazole, fluorescence viability; primary screen in compound mixtures of four per well. inhibition, % at 7.6 µM. 120,000 tested, 0.02% active. AID 1242, 2008;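 active = inhibition above 30.3% in the primary screen of four-compound pools, then above 30% when the compound was retested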;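 note: compounds exposed to preformed 24 h biofilms for 48 h; the number belongs to the whole pool; some results filed as inactive read as strong as hits; inactives centre near 12; 0% = biofilm with clotrimazole alone and 100% = kill control; retested singly at about 60 µM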
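Test system: C. albicans biofilms. Buffer or medium: RPMI/MOPS medium, pH 7.0. Timing: 48 h compound exposure at 37 °C. Technique: Alamar Blue fluorescence. Evaluation: percent inhibition of biofilm viability.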
* hit, by the source's call. The list is partial (hit frequency here may not be typical).

Preview, 32 compounds:
SMILES	Calb biofilm kill
Cc1ccccc1NC(=S)NC12CN3CN(CN(C3)C1)C2	17.9
O=C(CCN1CCCCC1)Nc1ccccc1	20.3
Cc1cc(C)cc(N(CC(=O)Nc2ccccc2C(=O)N2CCOCC2)S(C)(=O)=O)c1	2.7
O=S(=O)(c1ccc(NC(=S)NCc2ccco2)cc1)N1CCCCC1	10.0
CS(=O)(=O)N(CC(=O)NCc1ccncc1)c1ccc(F)c(Cl)c1	6.8
O=[N+]([O-])c1ccc(-c2nnc(CNC3CCCC3)o2)cc1	18.3
COc1cccc(C(=O)NC(C)c2ccc(Br)cc2)c1 (stereo unspecified)	5.8
O=C1N=C(N2CCCCC2)S/C1=C/C1=Cc2ccccc2OC1	3.9
Cc1cccc(C)c1NC(=O)C1CCCN1C(=O)OC(C)(C)C (stereo unspecified)	12.3
COc1ccc(Nc2nc(N)c([N+](=O)[O-])c(N3CCOCC3)n2)cc1	8.1
Cc1sc2ncnc(Sc3ccccc3C(=O)O)c2c1C	9.2
O=C(Nc1ccncc1)c1ccc2c(c1)S(=O)(=O)c1ccccc1C2=O	9.6
Cc1sc(NC(=S)NC(=O)c2ccco2)c(C#N)c1C	-10.2
O=C(O)C1C2C=CC(C2)C1C(=O)NCc1ccco1 (stereo unspecified)	15.3
Cc1nnc2ccc(-c3ccc(NC(=O)c4cccnc4Cl)cc3)nn12	8.0
Cc1cc(NS(=O)(=O)c2ccc(NC(NC(=O)C(C(F)(F)F)C(F)(F)F)(C(F)(F)F)C(F)(F)F)cc2)no1	9.8
COC(c1ccccc1)c1nnc(CCC(=O)NC2CCCCC2)o1 (stereo unspecified)	24.2
Cc1ccc(-c2csc3nc[nH]c(=O)c23)cc1	8.4
COc1ccc(/C=N/Nc2nonc2N)cc1OC	8.3
CCOC(=O)C1(Cc2ccc(Cl)cc2)CCN(C(=O)c2cscn2)CC1	22.3
COC(=O)c1ccc2c(=O)n(CCN3CCOCC3)c(SCC(=O)NCc3ccccc3)nc2c1	17.0
CCOC(=O)c1cnc2ccc(OCC)cc2c1NCc1ccccc1OC	11.1
COc1ccc(S(=O)(=O)N(CCC(N)=O)Cc2ccco2)cc1OC	16.1
Cc1cc2nc(N3C(=O)CNC3=S)sc2cc1C	8.8
Cc1ccc(CNS(=O)(=O)c2ccc3c(c2)n(C)c(=O)c(=O)n3C)cc1	8.9
C=CCNCCOCCSc1ccc(Cl)cc1	19.5
COc1ccc(OCCC(=O)OCC(=O)NCCc2ccccc2)cc1	8.2
Cc1ccccc1C1CC(c2cccs2)Nc2nnnn21 (stereo unspecified)	10.4
CCc1ccc(OCC(=O)NNC(=O)c2nn(CC)c(=O)c3ccccc23)cc1	8.1
Cc1ccc(Nc2cnn(C34CC5CC(CC(CC(=O)O)(C5)C3)C4)c(=O)c2Cl)c(Cl)c1	21.0
O=C(N[C@@H](Cc1ccc(O)cc1)C(=O)O)c1ccc(C(F)(F)F)cc1	10.7
COc1ccc(S(=O)(=O)N(C)C)cc1NCC(=O)Nc1ccc(Br)c(C)c1	-6.9

Results, from the first entry:
SMILES	Calb biofilm kill
Cc1ccccc1NC(=S)NC12CN3CN(CN(C3)C1)C2	17.9
O=C(CCN1CCCCC1)Nc1ccccc1	20.3
Cc1cc(C)cc(N(CC(=O)Nc2ccccc2C(=O)N2CCOCC2)S(C)(=O)=O)c1	2.7
O=S(=O)(c1ccc(NC(=S)NCc2ccco2)cc1)N1CCCCC1	10.0
CS(=O)(=O)N(CC(=O)NCc1ccncc1)c1ccc(F)c(Cl)c1	6.8
O=[N+]([O-])c1ccc(-c2nnc(CNC3CCCC3)o2)cc1	18.3
COc1cccc(C(=O)NC(C)c2ccc(Br)cc2)c1 (stereo unspecified)	5.8
O=C1N=C(N2CCCCC2)S/C1=C/C1=Cc2ccccc2OC1	3.9
Cc1cccc(C)c1NC(=O)C1CCCN1C(=O)OC(C)(C)C (stereo unspecified)	12.3
COc1ccc(Nc2nc(N)c([N+](=O)[O-])c(N3CCOCC3)n2)cc1	8.1
Cc1sc2ncnc(Sc3ccccc3C(=O)O)c2c1C	9.2
O=C(Nc1ccncc1)c1ccc2c(c1)S(=O)(=O)c1ccccc1C2=O	9.6
Cc1sc(NC(=S)NC(=O)c2ccco2)c(C#N)c1C	-10.2
O=C(O)C1C2C=CC(C2)C1C(=O)NCc1ccco1 (stereo unspecified)	15.3
Cc1nnc2ccc(-c3ccc(NC(=O)c4cccnc4Cl)cc3)nn12	8.0
Cc1cc(NS(=O)(=O)c2ccc(NC(NC(=O)C(C(F)(F)F)C(F)(F)F)(C(F)(F)F)C(F)(F)F)cc2)no1	9.8
COC(c1ccccc1)c1nnc(CCC(=O)NC2CCCCC2)o1 (stereo unspecified)	24.2
Cc1ccc(-c2csc3nc[nH]c(=O)c23)cc1	8.4
COc1ccc(/C=N/Nc2nonc2N)cc1OC	8.3
CCOC(=O)C1(Cc2ccc(Cl)cc2)CCN(C(=O)c2cscn2)CC1	22.3
COC(=O)c1ccc2c(=O)n(CCN3CCOCC3)c(SCC(=O)NCc3ccccc3)nc2c1	17.0
CCOC(=O)c1cnc2ccc(OCC)cc2c1NCc1ccccc1OC	11.1
COc1ccc(S(=O)(=O)N(CCC(N)=O)Cc2ccco2)cc1OC	16.1
Cc1cc2nc(N3C(=O)CNC3=S)sc2cc1C	8.8
Cc1ccc(CNS(=O)(=O)c2ccc3c(c2)n(C)c(=O)c(=O)n3C)cc1	8.9
C=CCNCCOCCSc1ccc(Cl)cc1	19.5
COc1ccc(OCCC(=O)OCC(=O)NCCc2ccccc2)cc1	8.2
Cc1ccccc1C1CC(c2cccs2)Nc2nnnn21 (stereo unspecified)	10.4
CCc1ccc(OCC(=O)NNC(=O)c2nn(CC)c(=O)c3ccccc23)cc1	8.1
Cc1ccc(Nc2cnn(C34CC5CC(CC(CC(=O)O)(C5)C3)C4)c(=O)c2Cl)c(Cl)c1	21.0
O=C(N[C@@H](Cc1ccc(O)cc1)C(=O)O)c1ccc(C(F)(F)F)cc1	10.7
COc1ccc(S(=O)(=O)N(C)C)cc1NCC(=O)Nc1ccc(Br)c(C)c1	-6.9
Cc1cccc(N=C2NC(=O)/C(=C/c3cccs3)S2)c1	16.0
CCOc1ccc(-n2cnnn2)cc1S(=O)(=O)N1CCC(C)CC1C (stereo unspecified)	17.3
CCn1c(=O)c2cc(C(=O)Nc3ccc(OC)cc3OC)sc2c2ccccc21	24.3
O=C(O)c1ccccc1-c1ccccc1C(=O)Nc1nccs1	20.5
O=C(COc1cccnc1[N+](=O)[O-])Nc1cc(S(=O)(=O)N2CCCCC2)ccc1Cl	11.2
O=C(NCC(=O)N(c1cccnc1)C(C(=O)NC1CCCC1)c1cccs1)c1ccco1 (stereo unspecified)	9.5
Cc1nnsc1C(=O)N/N=C/c1c(F)cccc1Cl	6.5
Cc1ccc(C(=O)NCCCc2ccccc2)s1	19.3
CCOC(=O)C(=CNc1ccc(Oc2cncc(Cl)c2)nc1)C(=O)OCC	23.2
CCOc1nc(NCCO)nc(Nc2cc(Cl)ccc2OC)n1	8.6
O=C1/C(=C/c2ccncc2)SC(=S)N1N1CCOCC1	4.1
O=Cc1cnc(N2CCCCC2)s1	14.8
N#Cc1c(Nc2ccccc2)s[nH]c1=O	14.1
Fc1ccc(Oc2cnc3ccccc3n2)cc1	21.6
COc1cc(C2NC(=S)NC3=C2CCc2ccccc23)cc(OC)c1OC (stereo unspecified)	23.6
CCNC(=S)N1CCN(S(=O)(=O)c2ccc(C)cc2)CC1	-15.5
COc1cc(C(=O)NCCc2ccc(F)cc2)c([N+](=O)[O-])cc1OC	12.6
CN(C)S(=O)(=O)c1cccc(NC(=O)COC(=O)/C=C/c2ccc(Br)o2)c1	13.8
Nc1nccc(-c2cccs2)n1	20.7
CNC(=S)NNc1nc(C)cc(C)n1	7.0
O=S(=O)(c1ccc(NC(=S)N2CCN(c3ccccc3F)CC2)cc1)N1CCOCC1	15.3
CCOC(=O)COc1nc(-c2ccccc2)cc(-c2ccco2)c1C#N	-3.3
Cc1cc(F)c(F)c(C(=O)N2CCOCC2)c1Cl	13.0
COc1ccc(CCNC(=O)CC(NC(=O)c2ccccc2Cl)c2ccccc2)cc1 (stereo unspecified)	5.9
CCc1ccccc1NNC(=O)CCc1ccccc1	16.5
COc1ccc(C(=O)N2CCCCC2)cc1S(=O)(=O)Nc1cccc(C(=O)O)c1	9.4
Cc1c(C(=O)O)oc2ccc(S(=O)(=O)NC3CCCCCCC3)cc12	17.2
COc1cccc(/C=N/NC(=O)Cn2cnc3c2c(=O)n(C)c(=O)n3C)c1	4.6

(cont.)
SMILES	Calb biofilm kill
O=C(/C=C\c1ccco1)NC(=S)Nc1ccccc1O	13.5
CCOC(=O)C1CCCN(C(=O)c2cc(-c3ccccc3)nc3ccccc23)C1 (stereo unspecified)	13.2
COc1cc(SC)ccc1C(=O)NCCOc1ccc(C)c(C)c1	9.6
O=C(CCC1CCCN(C(=O)c2ccc3cc[nH]c3c2)C1)N1CCN(c2ccccn2)CC1 (stereo unspecified)	-0.4
COc1cc(C(=O)NCC(c2ccco2)N(C)C)cc(OC)c1OC (stereo unspecified)	20.8
Cc1cc(C)cc(NC(=O)Nc2cc(-c3ccccc3)nn2C)c1	25.0
CC(C)n1cnc2c(NCc3ccccc3)nc(NCc3ccccc3)nc21	17.4
O=C(NC12CC3CC(CC(C3)C1)C2)c1ccccc1	16.6
COc1ccccc1NS(=O)(=O)c1cccc(N2CC(O)=C(c3ccccc3)C2=N)c1	6.2
O=C(COc1ccc(Br)cc1)N/N=C1\SCC(=O)N1c1ccc(F)cc1	15.5
CCC(C)NCCOc1ccccc1C (stereo unspecified)	8.8
Cc1nn(-c2ccccc2)c(N2CCCC2)c1/C=N/Nc1ccc(S(N)(=O)=O)cc1[N+](=O)[O-]	21.4
Cc1sc2ncnc(SCC(=O)NC(C)C(C)C)c2c1C (stereo unspecified)	0.6
c1cc(-c2cccs2)nc(-c2cccs2)c1	14.2
CC(C)C(=O)N1N=C(c2ccc(NS(C)(=O)=O)cc2)CC1c1cccs1 (stereo unspecified)	14.8
CCOc1ccc(NC(=O)Cn2nnc3c(cnn3-c3ccc(F)cc3)c2=O)cc1	15.1
CC(=O)Nc1nnc(-c2ccco2)o1	3.8
O=c1[nH]c2ccccc2c(O)c1O	14.5
CCN(CC)C(=O)CC(c1ccc(F)cc1)c1ccc(OC)cc1 (stereo unspecified)	10.1
Cc1cccc(Nc2nc(N)nc(CSC(=S)N3CCOCC3)n2)c1	18.2
COc1ccc2c(c1)c(C(=O)O)c(C)n2-c1ccccc1	24.6
COC(=O)CNC(=O)c1ccc(NS(=O)(=O)c2cc([N+](=O)[O-])ccc2Cl)cc1	16.6
Cc1nn(C)c(C)c1Nc1ccc(N2C(=O)C3C4C=CC(C4)C3C2=O)cc1[N+](=O)[O-] (stereo unspecified)	5.0
COc1cc(/C=C/[N+](=O)[O-])ccc1OCc1cccc(C(=O)O)c1	4.1
CCOC(=O)Cc1csc(NC(=O)Nc2cccc(Cl)c2)n1	4.5
COc1ccc(S(=O)(=O)NN(C)C(=O)c2nn(-c3ccccc3)ccc2=O)cc1	2.7
COC(=O)c1ccc(N=NNc2cccc(Br)c2)cc1	13.8
Cc1cccc(OCC(=O)N/N=C\c2cn(C)c3ccccc23)c1	10.9
C/C(=N\NC(=O)CN(c1ccccc1)S(=O)(=O)c1ccccc1[N+](=O)[O-])C(C)(C)C	-5.1
Oc1[nH]c2ccc(Br)cc2c1N=NC(=S)Nc1ccc(F)cc1	1.3
c1ccc(-c2ccccc2OCCN2CCOCC2)cc1	-0.6
CC(=O)Oc1ccc(-c2cccc(C(=O)NCCO)c2)cc1	3.5
COc1ccc(NC(=S)NNC(=O)CNc2ccc(Cl)cc2)cc1	10.5
CN(Cc1ccccc1)C(=O)COC(=O)c1ccc2ccccc2n1	2.6
CCn1nc(C(=O)Nc2nc3ccccc3[nH]2)c2ccccc2c1=O	7.3
CCOc1ccc(C2C(C(=O)Nc3cc(C)on3)c3ccccc3C(=O)N2CCN2CCOCC2)cc1 (stereo unspecified)	-0.8
O=C1NN(c2ccccc2)C(=O)/C1=C/c1ccc(Sc2cccc3ccccc23)o1	18.8
O=C1NCCn2ccc(=O)cc21	9.4
Cc1ccc(/C=N/NC(=O)c2cc(C)oc2C)cc1	8.1
COc1ccc(CC/C(C)=N\NC(N)=O)cc1	17.1
COc1ccc(/C=N/Nc2nc(Nc3ccccc3)nc(N3CCCCC3)n2)c(OC)c1	8.9
COc1ccc(C(=O)OCC(=O)NCCN2C(=O)CSC2=O)cc1	8.2
COc1ccc2[nH]cc(/C=C/C(=O)c3ccccc3)c2c1	15.3
COC(=O)Cn1c(=NC(=O)CSCC(=O)Nc2cc(C)on2)sc2cc(C(=O)OC)ccc21	18.2
COc1cc(C)c(Cl)cc1S(=O)(=O)n1ccnc1	11.4
N#Cc1ccc(-c2cccnc2)nc1SCc1ccc(Cl)c(Cl)c1	19.4
O=C(Nc1cccnc1)c1ccc(F)cc1	7.0
Cc1cc(C(=O)OCC(=O)NC(C)c2ccccc2)c(C)o1 (stereo unspecified)	4.4
O=C(N/N=C/c1ccccc1OC(=O)c1ccc2c(c1)OCO2)c1ccccc1	12.0
C=CCNC(=O)NC(=O)CSc1nc2cc([N+](=O)[O-])ccc2n1-c1cccc(C(F)(F)F)c1	22.2
O=C(NCc1ccco1)C(=O)c1cn(CC(=O)N2CCCCC2)c2ccccc12	17.9
Cc1oc(-c2ccccc2)cc1C(=O)Nc1cccc(/C=C/C(=O)O)c1	37.3

An excerpt from above in order of length of the SMILES, low to high:
SMILES	Calb biofilm kill
COc1ccc(CC/C(C)=N\NC(N)=O)cc1	17.1
CCNC(=S)N1CCN(S(=O)(=O)c2ccc(C)cc2)CC1	-15.5
COc1ccc(NC(=S)NNC(=O)CNc2ccc(Cl)cc2)cc1	10.5

Screening data: PubChem BioAssay, PCMD
